Mtb hypoxia rep: PubChem AID 1159583. M. tuberculosis hypoxia-regulated fluorescent reporter, fluorescence. fluorescence inhibition, % (no concentration beside the values). 300,000 tested, 0.1% active;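 active = 35 to 45% if threefold the growth effect, above 45% if 1.5-fold the growth effect; inactive = the rest, general growth blockers included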;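 also: wells of about 50 µL received 100 nL stock; 0% = vehicle wells and 100% = reference inhibitor wells; whole bacteria with a GFP reporter of the hypoxia response; strong numbers were not always called active; many hits fall short of the cut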
Sa RN4220 lethal: growth inhibition of S. aureus RN4220, primary screen, OD600; AID 1259311, 2017; inhibition, % (concentration not given with the values); 330,000 tested, 0.33% active; 16 h;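 active = z-score of -3 or lower and OD600 up to 0.18 on both plates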;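 also: plate controls were untreated cells for no effect and reference antibiotic for full effect; stock transfer was 100 nL into about 80 µL; one replicate is shown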
ugtP null kill: growth inhibition of ugtP-null S. aureus, primary screen, RN4220 ugtP deletion, OD600; growth inhibition, % (no concentration beside the values); 16 h; some inactives read as strong as hits; 330,000 tested, 0.54% active;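 active = z-score under -3 and OD600 up to 0.15 on both plates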;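 also: plate controls were untreated wells for no effect and antibiotic for full effect; wells of about 80 µL received 100 nL stock; the first replicate is given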
PrP UTR inh: inhibition of PrP 5' UTR reporter expression; AID 488862, 2010; 340,000 tested, 0.35% active; cell-based PrP 5' UTR mRNA reporter, plate reader; inhibition, % (concentration not given with the values);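 active = every replicate at 50% or more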;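 also: 0 = median of the neutral control wells; tested in H4 reporter cells; numbers are from one replicate; inactives centre near -14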
BJeLR lethal: MLPCN primary cell-based screen for lethality selective to Ras in HRASV12 cells; BJeLR (HRASV12) viability, CellTiter-Glo ATP luminescence, 48 h; reference of the scale not given here; inhibition, % (concentration not given with the values); 300,000 tested, 0.17% active; AID 1554, 2009;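 active = replicate mean above 50%; inconclusive = above 50% but judged a plate artefact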;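 also: 50 nL library stock added to about 25 µL; numbers are from one replicate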
Autofluor counter: counter-screen for toxin protease inhibitors: compound fluorescence. compound autofluorescence counterscreen, microsphere flow cytometry; active compounds read high. fluorescence intensity (no concentration beside the values). 360,000 tested, 3.1% active. AID 624483;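 active = at least 3 SD above the mean of all compounds, about 16000 in these data; inconclusive = too few beads counted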;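 also: 100 nL of 1 mM stock went into each well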
Mtb hypoxia rep growth: recorded beside Mtb hypoxia rep, whose call it bears; growth inhibition, %; measured here: M. tuberculosis growth (absorbance);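 0% = vehicle and 100% = reference antibiotic; read after six days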
* hit, by the source's call. Compounds as they come. Share with any hit: about 4%.

CCCCN(CC)C(=O)C1CCCN(S(=O)(=O)c2cccc3nsnc23)C1 (configuration not stated) was read as Mtb hypoxia rep -8, Sa RN4220 lethal 0.3, ugtP null kill -8, PrP UTR inh -19, BJeLR lethal 3, Autofluor counter 5391 and Mtb hypoxia rep growth 1.
Screening O=C(Cc1ccccc1[N+](=O)[O-])NCc1ccccc1Cl returned Mtb hypoxia rep 6, Sa RN4220 lethal 2.8, ugtP null kill -2, PrP UTR inh -60, BJeLR lethal -3, Autofluor counter 9647 and Mtb hypoxia rep growth 8.
Cc1nn(C(=O)c2ccco2)c(C)c1Sc1ccc(Br)cc1 was read as Sa RN4220 lethal 0.1, ugtP null kill 1, PrP UTR inh -9, BJeLR lethal 6 and Autofluor counter 2518.
For Cc1cccnc1NC(=O)c1cc2c(=O)oc3ccccc3c2s1 the results were Mtb hypoxia rep -3, Sa RN4220 lethal 7.3, ugtP null kill -6, PrP UTR inh -8, BJeLR lethal -12, Autofluor counter 6735 and Mtb hypoxia rep growth -2.
For O=S(=O)(Nc1nc2ccccc2nc1Cl)c1ccc(Cl)cc1 the results were Mtb hypoxia rep 1, Sa RN4220 lethal 19, ugtP null kill -10, PrP UTR inh -10, BJeLR lethal 5, Autofluor counter 8294 and Mtb hypoxia rep growth -10.
`Cc1ccc(OCCSc2nc(NC(C)C)nc(NC(C)C)n2)cc1` gave Mtb hypoxia rep 1, Sa RN4220 lethal -12, ugtP null kill -18, PrP UTR inh -1, BJeLR lethal 8, Autofluor counter 2459 and Mtb hypoxia rep growth 2.
N#Cc1ccccc1OCC(=O)NC(=O)NC1CCS(=O)(=O)C1 (configuration not stated) was read as Mtb hypoxia rep 5, Sa RN4220 lethal 0.5, ugtP null kill 1, PrP UTR inh -27, Autofluor counter 3359 and Mtb hypoxia rep growth 3.
`COc1ccccc1C1/C(=C(/O)c2ccc(OC(C)C)cc2)C(=O)C(=O)N1c1cc(C)on1` (configuration not stated) gave Sa RN4220 lethal 3.3, ugtP null kill -1, PrP UTR inh -3, BJeLR lethal 0 and Autofluor counter 3440.
`O=C(COC(=O)C12CC3CC(CC(O)(C3)C1)C2)Nc1ccccc1OC(F)F` gave Mtb hypoxia rep -5, Sa RN4220 lethal 0.0, ugtP null kill -4, PrP UTR inh -16, BJeLR lethal -20, Autofluor counter 7982 and Mtb hypoxia rep growth 6.
`COc1cc(OC)cc(-c2c(-c3cccs3)c3cc(-c4cc(OC)c(OC)c(OC)c4)ccc3n2C)c1` gave Mtb hypoxia rep 8, Sa RN4220 lethal 2.2, ugtP null kill -4, PrP UTR inh -12, Autofluor counter 2837 and Mtb hypoxia rep growth 10.
CCCn1nc2cc(C(=O)NCc3ccc(C)cc3)ccc2c1OC was read as PrP UTR inh -16, BJeLR lethal 8 and Autofluor counter 2849.
O=C(NNS(=O)(=O)c1ccc2ccccc2c1)c1cccnc1 was read as Mtb hypoxia rep 4, Sa RN4220 lethal 6.8, ugtP null kill -10, PrP UTR inh -22, BJeLR lethal -1, Autofluor counter 2704 and Mtb hypoxia rep growth 0.
`Cc1nc2c(C)cccn2c1/C(O)=C1\C(=O)C(=O)N(CCN(C)C)C1c1ccccc1` (configuration not stated) gave Mtb hypoxia rep 11, Sa RN4220 lethal 2.0, ugtP null kill 4, PrP UTR inh -29, BJeLR lethal -2, Autofluor counter 5844 and Mtb hypoxia rep growth 2.
N#CCc1c[nH]c2ccc([N+](=O)[O-])cc12 was read as Mtb hypoxia rep 20, Sa RN4220 lethal 3.7, ugtP null kill 4, PrP UTR inh -8, Autofluor counter 3895 and Mtb hypoxia rep growth 8.
`C#CCOC(=O)c1csc2nnsc12` gave Mtb hypoxia rep 5, Sa RN4220 lethal 6.5, ugtP null kill -9, PrP UTR inh -34, BJeLR lethal 2, Autofluor counter 21747* and Mtb hypoxia rep growth 12.
`CC1=C(C(N)=O)C(c2ccccc2F)NC(=O)N1` (configuration not stated) gave Mtb hypoxia rep -6, Sa RN4220 lethal -4.0, ugtP null kill 2, PrP UTR inh -11, BJeLR lethal -11, Autofluor counter 2835 and Mtb hypoxia rep growth 0.
O=C(COC(=O)c1cccc(Cl)c1)NC1CCS(=O)(=O)C1 (configuration not stated) was read as Mtb hypoxia rep -17, Sa RN4220 lethal -2.4, ugtP null kill -8, PrP UTR inh -19, Autofluor counter 3964 and Mtb hypoxia rep growth -7.
`CCOC(=O)CNC(=O)CSc1ccc(-c2nc3ccccc3[nH]2)cn1` gave PrP UTR inh -33, BJeLR lethal 2 and Autofluor counter 3854.
CCc1cc2c(N[C@@H](C)C(=O)O)ncnc2s1 was read as Mtb hypoxia rep 14, Sa RN4220 lethal -7.4, ugtP null kill -6, PrP UTR inh -18, BJeLR lethal -1, Autofluor counter 3568 and Mtb hypoxia rep growth 6.
`COc1cccc(CC(=O)Nc2ccccc2N2CCCC2)c1` gave Mtb hypoxia rep 1, Sa RN4220 lethal 1.0, ugtP null kill 2, PrP UTR inh -14, BJeLR lethal 5, Autofluor counter 5608 and Mtb hypoxia rep growth 6.

7 records picked at random from the list so far, as already listed:
For O=S(=O)(Nc1nc2ccccc2nc1Cl)c1ccc(Cl)cc1 the results were Mtb hypoxia rep 1, Sa RN4220 lethal 19, ugtP null kill -10, PrP UTR inh -10, BJeLR lethal 5, Autofluor counter 8294 and Mtb hypoxia rep growth -10.
CCCCN(CC)C(=O)C1CCCN(S(=O)(=O)c2cccc3nsnc23)C1 (configuration not stated) was read as Mtb hypoxia rep -8, Sa RN4220 lethal 0.3, ugtP null kill -8, PrP UTR inh -19, BJeLR lethal 3, Autofluor counter 5391 and Mtb hypoxia rep growth 1.
`COc1cc(OC)cc(-c2c(-c3cccs3)c3cc(-c4cc(OC)c(OC)c(OC)c4)ccc3n2C)c1` gave Mtb hypoxia rep 8, Sa RN4220 lethal 2.2, ugtP null kill -4, PrP UTR inh -12, Autofluor counter 2837 and Mtb hypoxia rep growth 10.
`Cc1nc2c(C)cccn2c1/C(O)=C1\C(=O)C(=O)N(CCN(C)C)C1c1ccccc1` (configuration not stated) gave Mtb hypoxia rep 11, Sa RN4220 lethal 2.0, ugtP null kill 4, PrP UTR inh -29, BJeLR lethal -2, Autofluor counter 5844 and Mtb hypoxia rep growth 2.
`COc1cccc(CC(=O)Nc2ccccc2N2CCCC2)c1` gave Mtb hypoxia rep 1, Sa RN4220 lethal 1.0, ugtP null kill 2, PrP UTR inh -14, BJeLR lethal 5, Autofluor counter 5608 and Mtb hypoxia rep growth 6.
Cc1nn(C(=O)c2ccco2)c(C)c1Sc1ccc(Br)cc1 was read as Sa RN4220 lethal 0.1, ugtP null kill 1, PrP UTR inh -9, BJeLR lethal 6 and Autofluor counter 2518.
`C#CCOC(=O)c1csc2nnsc12` gave Mtb hypoxia rep 5, Sa RN4220 lethal 6.5, ugtP null kill -9, PrP UTR inh -34, BJeLR lethal 2, Autofluor counter 21747* and Mtb hypoxia rep growth 12.

Additional records follow:
For CC(C)c1ccc(C(C)NC(=S)NC2CCCCC2)cc1 (configuration not stated) the results were Mtb hypoxia rep 2, Sa RN4220 lethal -8.7, ugtP null kill -15, PrP UTR inh -10, BJeLR lethal 8, Autofluor counter 5547 and Mtb hypoxia rep growth 11.
CCCCOc1ccc2ccccc2c1C=O was read as Sa RN4220 lethal 8.7, ugtP null kill 7, PrP UTR inh -26, BJeLR lethal -1 and Autofluor counter 3959.
Screening O=C(CN1C(=O)c2ccccc2C1=O)NCC(=O)OCC(=O)c1ccc(Br)cc1 returned Sa RN4220 lethal 4.4, ugtP null kill 2, PrP UTR inh -24, BJeLR lethal -1 and Autofluor counter 2931.
Screening N#C/C(=C\c1ccccc1[N+](=O)[O-])c1nc(C2CC2)cs1 returned Mtb hypoxia rep 2, Sa RN4220 lethal 16, ugtP null kill -5, PrP UTR inh -82, BJeLR lethal -2, Autofluor counter 7653 and Mtb hypoxia rep growth 17.
For COc1ccc(CN(Cc2cccn2C)S(=O)(=O)c2ccccc2)cc1 the results were Mtb hypoxia rep 1, Sa RN4220 lethal 4.9, ugtP null kill 19, PrP UTR inh -13, BJeLR lethal -1, Autofluor counter 4250 and Mtb hypoxia rep growth 0.
COc1ccc(N(CC(=O)Nc2ccc(OC)c(Cl)c2)S(=O)(=O)c2c(C)noc2C)cc1 was read as Mtb hypoxia rep 1, Sa RN4220 lethal 3.3, ugtP null kill 1, PrP UTR inh -16, BJeLR lethal -1, Autofluor counter 20070* and Mtb hypoxia rep growth 7.
`Cc1cccc(CCNC(=O)C2CCN(S(=O)(=O)c3ccccc3)CC2)c1` gave Mtb hypoxia rep 10, Sa RN4220 lethal 21, ugtP null kill 7, PrP UTR inh -14, BJeLR lethal -1, Autofluor counter 4382 and Mtb hypoxia rep growth 8.
Screening COc1ccc(OC)c(NC(=O)COC(=O)c2n[nH]c3ccccc23)c1 returned Mtb hypoxia rep 0, Sa RN4220 lethal 5.9, ugtP null kill -7, PrP UTR inh -21, Autofluor counter 3483 and Mtb hypoxia rep growth 0.
`Cc1ccc2nc(SCC(=O)N(CC(C)C)c3c(N)n(CC(C)C)c(=O)[nH]c3=O)[nH]c2c1` gave Sa RN4220 lethal -2.5, ugtP null kill -3, PrP UTR inh -11, BJeLR lethal -7 and Autofluor counter 2604.
For CC(NCC(=O)Nc1ccccc1C(=O)NC1CC1)c1cccc(Cl)c1 (configuration not stated) the results were Mtb hypoxia rep 5, Sa RN4220 lethal 3.2, ugtP null kill 4, PrP UTR inh -5, Autofluor counter inconclusive and Mtb hypoxia rep growth 6.
For CC(N)Cc1c[nH]c2cc3c(cc12)OCCO3 (configuration not stated) the results were Sa RN4220 lethal -3.8, ugtP null kill -8, PrP UTR inh -16, BJeLR lethal -3 and Autofluor counter 4841.
Screening S=c1nc(NCc2cccc(Cl)c2)c2ccccc2[nH]1 returned Mtb hypoxia rep 8, Sa RN4220 lethal -0.4, ugtP null kill -11, PrP UTR inh -16, BJeLR lethal 2, Autofluor counter 3583 and Mtb hypoxia rep growth 5.
`O=C(NC1CCCCC1)C(c1ccco1)N(C(=O)C(F)(F)F)C1CC1` (configuration not stated) gave Mtb hypoxia rep -5, Sa RN4220 lethal 1.5, ugtP null kill -3, PrP UTR inh -9, BJeLR lethal 13, Autofluor counter 4335 and Mtb hypoxia rep growth 11.
CCOc1ccc(NC(=O)CSc2nnc(CNC(=O)c3cccs3)o2)cc1 was read as Mtb hypoxia rep -2, Sa RN4220 lethal 3.2, ugtP null kill 8, PrP UTR inh 13, BJeLR lethal -13, Autofluor counter 4575 and Mtb hypoxia rep growth -8.
`COc1ccc(S(=O)(=O)N2CCCCC2)cc1NC(=O)CNc1ccccc1N1CCCC1=O` gave Mtb hypoxia rep 11, Sa RN4220 lethal 0.4, ugtP null kill 6, PrP UTR inh -17, Autofluor counter 4104 and Mtb hypoxia rep growth 5.
Screening CSCC[C@H](NC(=O)N1CCn2c1nc1ccccc12)C(=O)NCc1ccc(C)cc1 returned Mtb hypoxia rep 6, Sa RN4220 lethal 1.4, ugtP null kill -2, PrP UTR inh -14, BJeLR lethal 10, Autofluor counter 6271 and Mtb hypoxia rep growth -7.
Screening CCCCN(C1CCS(=O)(=O)C1)S(=O)(=O)c1ccc(C(C)C)cc1 (configuration not stated) returned Mtb hypoxia rep 1, Sa RN4220 lethal -0.1, ugtP null kill 3, PrP UTR inh 10, BJeLR lethal -4, Autofluor counter 5463 and Mtb hypoxia rep growth 2.
For Cc1cccc(OC(=O)N2CCOCC2)c1 the results were Mtb hypoxia rep 1, Sa RN4220 lethal 6.5, ugtP null kill 1, PrP UTR inh -34, Autofluor counter 24289* and Mtb hypoxia rep growth 5.
For O=C1CCCc2nc(N3CCc4ccccc43)ncc21 the results were Mtb hypoxia rep 1, Sa RN4220 lethal 16, ugtP null kill -6, Autofluor counter 7094 and Mtb hypoxia rep growth -4.
`Cc1c(C(=O)N2CCNCC2)oc2ccccc12` gave Mtb hypoxia rep -5, Sa RN4220 lethal 1.8, ugtP null kill 4, PrP UTR inh -3, BJeLR lethal 10, Autofluor counter 3950 and Mtb hypoxia rep growth -2.
For Cc1ccc(CNC(=O)C(Cc2ccccc2)NS(=O)(=O)c2cccs2)cc1 (configuration not stated) the results were Mtb hypoxia rep 12, Sa RN4220 lethal 2.8, ugtP null kill 0, PrP UTR inh -36, BJeLR lethal 7, Autofluor counter 3952 and Mtb hypoxia rep growth 15.

High-throughput results from PubChem.
